FGF22 binding: binders of human FGF22 protein, primary screen, FGF22 synaptogenesis inhibitor project, biophysical, thermal shift, single point. Fibroblast growth factor 22 (Homo sapiens), Q9HCT0. recombinant FGF22 thermal shift, SYPRO orange fluorescence; percent of sucrose octasulfate shift, DMSO zero. calls only at 9.99 µM. 340,000 compounds, 1.5% hits. AID 651658, 2012;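 active = melting point raised past a set limit in the mean and every replicate; three in four hits are not shown here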
Target sequence (Q9HCT0 whole entry, looked up): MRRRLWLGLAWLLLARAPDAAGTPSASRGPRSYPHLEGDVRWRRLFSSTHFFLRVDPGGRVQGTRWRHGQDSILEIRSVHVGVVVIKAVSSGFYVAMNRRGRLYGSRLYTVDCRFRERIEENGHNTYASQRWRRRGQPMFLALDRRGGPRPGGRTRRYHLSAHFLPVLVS
Calls only; i = inactive; + = active, no number.

entry	SMILES	FGF22 binding
1	Cc1ccc(S(=O)(=O)N(C)C[C@@H]2Oc3c(NS(=O)(=O)c4ccccc4)cccc3C(=O)N([C@@H](C)CO)C[C@H]2C)cc1	i
2	CC(C)NC(=O)N1CCCCN2[C@H](C1)[C@H](c1ccc(C#CC3CC3)cc1)[C@@H]2CO	i
3	CO[C@H]1CN(C)C(=O)c2cc(NC(=O)C3CCCCC3)ccc2OC[C@H](C)N(C)C[C@H]1C	i
4	COc1ccc(S(=O)(=O)Nc2ccc3c(c2)C(=O)N([C@@H](C)CO)C[C@H](C)[C@H](CN(C)C(=O)c2ccncc2)OCCCC[C@@H](C)O3)cc1	i
5	Cc1noc(C)c1NC(=O)N(C)C[C@@H]1Oc2ccc(NC(=O)Cn3cnnn3)cc2C(=O)N([C@H](C)CO)C[C@H]1C	i
6	C[C@H](CO)N1C[C@H](C)[C@H](CN(C)CC2CCOCC2)Oc2cc(C#CC3CC3)ccc2S1(=O)=O	i
7	CCCN1C[C@H](C)[C@H](OC)CN(C)C(=O)c2cc(NC(=O)CC(F)(F)F)ccc2OC[C@@H]1C	i
8	CNC[C@H]1[C@@H](c2ccccc2)[C@@H](CO)N1C(=O)Nc1cccc(OC)c1	i
9	CC(C)[C@H](NC(=O)[C@@H](N)Cc1ccccc1)C(=O)N1CCC2CCN(Cc3ccccc3)CC21 (stereo partly drawn)	i
10	COc1ccccc1-c1ccc2n(c1=O)C[C@H]1[C@H](CO)[C@@H](C(=O)NC3CCC3)N(C(=O)NC(C)C)[C@@H]21	i
11	CCCc1cn(CC[C@H]2CC[C@H](NS(=O)(=O)c3ccccc3Cl)[C@@H](CO)O2)nn1	i
12	CC(C)NC(=O)Nc1cccc2c1O[C@H](CN(C)C(=O)Nc1ccc3c(c1)OCO3)[C@H](C)CN([C@H](C)CO)C2=O	i
13	Cc1ccc(S(=O)(=O)Nc2cccc3c2O[C@@H](CN(C)S(=O)(=O)c2ccc(C)cc2)[C@H](C)CN([C@@H](C)CO)C3=O)cc1	i
14	CCC(=O)Nc1ccc2c(c1)OC[C@H](C)N(Cc1ccccn1)C[C@@H](C)[C@@H](OC)CN(C)C2=O	i
15	COCC(=O)N(C)C[C@H]1Oc2cc(-c3ccncc3)ccc2S(=O)(=O)N([C@H](C)CO)C[C@@H]1C	i
16	C[C@H]1CN([C@@H](C)CO)C(=O)c2cc(C3=CCCCC3)cnc2O[C@@H]1CN(C)Cc1ccccn1	i
17	CC(C)NC(=O)N(C)C[C@@H]1Oc2ncc(C#Cc3cccc(F)c3)cc2C(=O)N([C@H](C)CO)C[C@@H]1C	i
18	COc1ccc(CN2CCC(C)=CC2C)cc1 (stereo not drawn)	i
19	CC(=O)N1[C@H](CO)[C@H]2c3ccccc3N(C(=O)Nc3cc(F)ccc3F)C[C@H]21	i
20	CNC[C@@H]1Oc2c(NC(=O)c3nc4ccccc4s3)cccc2C(=O)N([C@H](C)CO)C[C@H]1C	i
21	COc1ccc(S(=O)(=O)N(C)C[C@@H]2Oc3ccc(NS(=O)(=O)c4ccccc4)cc3C(=O)N([C@@H](C)CO)C[C@@H]2C)cc1	i
22	Cc1ccc(-c2ccc3c(c2)O[C@H](CN(C)C)[C@@H](C)CN([C@H](C)CO)S3(=O)=O)cc1	i
23	C[C@H](CO)N1C[C@H](C)[C@H](CN(C)C(=O)C2CC2)Oc2ncc(C#CC(C)(C)O)cc2C1=O	i
24	COc1ccc(S(=O)(=O)N(C)C[C@H]2OCCCC[C@@H](C)Oc3ccc(NC(=O)CCCN(C)C)cc3C(=O)N([C@@H](C)CO)C[C@@H]2C)cc1	i
25	C[C@H](CO)N1C[C@H](C)[C@@H](CN(C)C(=O)CC2CC2)Oc2cc(C#C[C@@H](C)O)ccc2S1(=O)=O	i
26	C[C@@H]1CCCCO[C@H](CN(C)C(=O)Nc2ccc(F)cc2)[C@@H](C)CN([C@@H](C)CO)C(=O)c2cc(NS(=O)(=O)c3ccccc3)ccc2O1	i
27	Cc1noc(C)c1NC(=O)Nc1ccc2c(c1)C(=O)N([C@H](C)CO)C[C@@H](C)[C@H](CN(C)Cc1ccncc1)OCCCC[C@H](C)O2	i
28	CO[C@H]1CN(C)C(=O)c2cc(NC(=O)Nc3ccc(Cl)cc3)ccc2OC[C@@H](C)NC[C@@H]1C	i
29	COCCNC(=O)C[C@H]1C=C[C@H](NC(=O)NC2CCCCC2)[C@@H](CO)O1	i
30	O=C(C[C@@H]1CC[C@H](NS(=O)(=O)c2ccc(F)cc2)[C@@H](CO)O1)NCc1ccc(Cl)c(Cl)c1	i
31	COC(=O)c1cc2c(c3c4cc(F)ccc4n(S(=O)(=O)c4ccc(C)cc4)c13)C(=O)N(c1ccc(OC)cc1)C2	i
32	Cc1ccccc1-c1cnc2c(c1)C(=O)N([C@H](C)CO)C[C@H](C)[C@@H](CN(C)C(=O)c1ccncc1)O2	i
33	C[C@H](CO)N1C[C@H](C)[C@H](CN(C)Cc2ccc(Oc3ccccc3)cc2)Oc2ccc(NS(=O)(=O)c3ccc(F)cc3)cc2CC1=O	i
34	C[C@@H]1CCCCO[C@@H](CN(C)Cc2ccc3c(c2)OCO3)[C@@H](C)CN([C@H](C)CO)C(=O)c2cc(NC(=O)CCC(F)(F)F)ccc2O1	i
35	CO[C@H]1CN(C)C(=O)c2ccc(NC(=O)Nc3ccccc3F)cc2OC[C@H](C)NC[C@@H]1C	i
36	CC=Cc1ccc2n(c1=O)C[C@H]1[C@H](CO)[C@@H](C(=O)NC3Cc4ccccc4C3)N(CC3CC3)[C@@H]21 (mixture of isomers)	i
37	C[C@@H]1CN([C@H](C)CO)C(=O)c2cc(NC(=O)C3CCCCC3)ccc2O[C@@H](C)CCCCO[C@@H]1CN(C)C(=O)Cc1ccccc1	i
38	CCCNC(=O)[C@H]1[C@H](CO)[C@H]2Cn3c(cccc3=O)[C@H]2N1CC1CC1	i
39	C[C@@H]1CN([C@H](C)CO)S(=O)(=O)c2ccc(C#C[C@@H](C)O)cc2O[C@H]1CN(C)C	i
40	C[C@H]1CCCCO[C@@H](CN(C)Cc2ccccc2)[C@@H](C)CN([C@@H](C)CO)C(=O)c2cc(NC(=O)Nc3ccc(F)cc3)ccc2O1	i
41	C[C@@H]1CN([C@H](C)CO)C(=O)c2cccc(NC(=O)c3nc4ccccc4s3)c2O[C@H]1CN(C)Cc1ccc2c(c1)OCO2	i
42	C[C@@H]1CCCCO[C@@H](CN(C)C(=O)Nc2ccccc2)[C@@H](C)CN([C@H](C)CO)C(=O)c2cc(NC(=O)c3ccccc3)ccc2O1	i
43	O=C(NCc1ccccc1)[C@@H]1[C@@H](CO)[C@@H]2Cn3c(cccc3=O)[C@@H]2N1C(=O)C1CC1	i
44	CN(C)C(=O)C[C@H]1C=C[C@H](NC(=O)c2ccc(F)cc2)[C@@H](CO)O1	i
45	C[C@@H]1CN([C@@H](C)CO)C(=O)c2cc(NC(=O)Cc3ccccc3)ccc2O[C@@H](C)CCCCO[C@@H]1CN(C)C(=O)c1ccccc1	i
46	COc1ccccc1C#Cc1ccc([C@@H]2[C@@H](CO)N(C(=O)C3CCC3)[C@H]2C#N)cc1	i
47	CO[C@H]1CC[C@H]2CCN(C)C(=O)[C@@H](C)[C@H](OC)CN(C)C(=O)c3cc(C#N)ccc3OC[C@@H]1O2	i
48	COc1cccc(C#Cc2ccc([C@H]3[C@@H](CO)N(C(=O)C4CCCCC4)[C@H]3C#N)cc2)c1	i
49	CO[C@H]1CN(C)C(=O)c2cc(NC(=O)C3CC3)ccc2OC[C@H](C)N(C(C)=O)C[C@@H]1C	i
50	CCCNC(=O)N(C)C[C@@H]1Oc2ncc(-c3cccc(C#N)c3)cc2C(=O)N([C@H](C)CO)C[C@@H]1C	i

Remaining list, next part
entry	SMILES	FGF22 binding
51	O=C(c1ccccn1)N1C[C@H]2[C@@H](c3ccccc31)[C@@H](CO)N2C(=O)CC1CC1	i
52	COCCNC(=O)C[C@H]1C[C@H]2c3cc(NC(=O)C4CCC4)ccc3O[C@H]2[C@@H](CO)O1	i
53	Nc1nc2c(ncn2[C@@H]2O[C@H](C(=O)N[C@H](Cc3ccccc3)C(=O)NCc3ccccc3)[C@@H](O)[C@H]2O)c(=O)[nH]1	i
54	C[C@H]1CN([C@@H](C)CO)C(=O)c2cc(NC(=O)Nc3ccc4c(c3)OCO4)ccc2O[C@H]1CN(C)S(=O)(=O)c1ccccc1	i
55	COc1ccccc1C#Cc1cnc2c(c1)C(=O)N([C@@H](C)CO)C[C@@H](C)[C@H](CN(C)C(C)=O)O2	i
56	COc1cccc(NC(=O)N(C)C[C@H]2Oc3ncc(C4=CCCCC4)cc3C(=O)N([C@@H](C)CO)C[C@@H]2C)c1	i
57	C[C@H]1CN([C@@H](C)CO)C(=O)Cc2cc(NC(=O)CCC(F)(F)F)ccc2O[C@H]1CN(C)Cc1ccncc1	i
58	COc1ccc(CN(C)C[C@@H]2Oc3ccc(NS(=O)(=O)c4c(C)noc4C)cc3C(=O)N([C@H](C)CO)C[C@H]2C)cc1	i
59	COC(=O)C[C@H]1CC[C@H](NC(=O)c2ccccc2)[C@@H](CO)O1	i
60	C[C@@H]1CN([C@@H](C)CO)C(=O)c2cccc(NC(=O)c3nc4ccccc4s3)c2O[C@H]1CN(C)Cc1ccc(Cl)c(Cl)c1	i
61	C[C@@H]1CN([C@H](C)CO)C(=O)c2cccc(NS(=O)(=O)c3ccc(F)cc3)c2O[C@H]1CN(C)Cc1ccc(Cl)c(Cl)c1	i
62	C[C@@H]1CN([C@H](C)CO)S(=O)(=O)c2ccc(C#CC3(O)CCCC3)cc2O[C@@H]1CN(C)C(=O)Nc1cccc(F)c1	i
63	C[C@H]1CCCCO[C@@H](CN(C)Cc2ccncc2)[C@@H](C)CN([C@@H](C)CO)C(=O)c2cc(NS(C)(=O)=O)ccc2O1	i
64	Cc1ccccc1S(=O)(=O)N1CC[C@@H]2[C@H](CO)Nc3ccc(-c4ccccc4)cc3[C@@H]21	i
65	O=C(C1CCCC1)N1CCCCN2[C@H](CO)[C@H](c3ccc(C#CC4CC4)cc3)[C@@H]2C1	i
66	COc1cccc(NC(=O)C[C@@H]2CC[C@H]3[C@H](COc4ccc(NC(=O)c5ccccc5F)cc4C(=O)N3C)O2)c1	i
67	C[C@H](CO)N1C[C@H](C)[C@H](CN(C)C(=O)Nc2ccccc2)Oc2ccc(NC(=O)NC3CCCCC3)cc2CC1=O	i
68	C[C@@H]1CN([C@@H](C)CO)S(=O)(=O)c2ccc(C#Cc3cccnc3)cc2O[C@H]1CN(C)CC1CCCC1	i
69	COc1ccc(NC(=O)N(C)C[C@H]2Oc3c(NC(=O)C4CCOCC4)cccc3C(=O)N([C@@H](C)CO)C[C@@H]2C)cc1	i
70	COc1ccccc1-c1cn(CC[C@H]2CC[C@H](NC(=O)C3CC3)[C@H](CO)O2)nn1	i
71	C[C@@H]1CN([C@@H](C)CO)S(=O)(=O)c2ccc(-c3ccccc3)cc2O[C@@H]1CN(C)Cc1cncnc1	i
72	C[C@H]1CN([C@@H](C)CO)C(=O)c2cc(NC(=O)Cc3ccccc3)ccc2O[C@@H]1CN(C)C(=O)NC1CCCCC1	i
73	COc1ccc(NC(=O)N(C)C[C@@H]2Oc3ccc(NC(=O)C4CCCCC4)cc3CC(=O)N([C@H](C)CO)C[C@H]2C)cc1	i
74	C[C@H](CO)N1C[C@H](C)[C@@H](CN(C)C(=O)c2cccnc2)Oc2cc(/C=C/c3ccccc3)ccc2S1(=O)=O	i
75	C[C@@H]1CN([C@H](C)CO)C(=O)c2cc(-c3ccccc3)cnc2O[C@H]1CN(C)C(=O)c1cccnc1	i
76	C[C@@H]1CN([C@@H](C)CO)C(=O)c2cccc(NC(=O)C3CCCCC3)c2O[C@@H]1CN(C)C(=O)Nc1ccccc1	i
77	C[C@@H]1CN([C@@H](C)CO)C(=O)c2cc(NS(=O)(=O)c3ccccc3)ccc2O[C@H]1CN(C)Cc1ccccc1	i
78	COc1ccccc1-c1cnc2c(c1)C(=O)N([C@@H](C)CO)C[C@H](C)[C@H](CN(C)C(=O)c1cccnc1)O2	+
79	C[C@@H]1CCCCO[C@H](CN(C)C(=O)c2ccccc2)[C@@H](C)CN([C@H](C)CO)C(=O)c2cc(NC(=O)Nc3cccc4ccccc34)ccc2O1	i
80	COc1ccc([Si](C)(C)[C@@H]2[C@@H](CCO)O[C@]3(C(=O)N(Cc4cccc(NC(C)=O)c4)c4ccccc43)[C@H]2C)cc1	i
81	O=C(CCc1c[nH]c2ccccc12)Nc1ccc(Nc2cccnc2)c(Br)c1	i
82	COc1cccc(C(=O)N2C[C@H]3[C@@H](c4ccccc42)[C@H](CO)N3Cc2ccccc2Cl)c1	i
83	CO[C@H]1CN(C)C(=O)c2cc(NC(=O)C3CC3)ccc2OC[C@H](C)N(Cc2ccc(F)cc2)C[C@H]1C	i

Assay outcomes (PubChem)

Some of the compounds tested; the hit share may differ from the screen's.
